Vaccinia mCherry – qHTS for Stage-Specific Inhibitors of Vaccinia Orthopoxvirus: mCherry Reporter Primary qHTS; Vaccinia virus mCherry reporter infection, fluorescence; about a quarter of the inactives have no number; Potency, µM (highest dose often 36.5 µM), without a hit: at the top dose activity change, negative = inhibition, hits mostly inhibitors; actives 0.63% (n = 310,000); active = well fitted inhibition curve with a large enough effect; inconclusive = small, poorly fitted or top-dose-only effect; inactive = no such curve, though single readings can be large or run the other way; tested in A549 cells; further: nearly all actives have a fitted effect of over 35% in size; inactives centre near -10
VACV Venus inh – qHTS for Stage-Specific Inhibitors of Vaccinia Orthopoxvirus: Venus Reporter Primary qHTS. AID 720580, 2013. Potency, µM (titrated, usually from 36.5 µM), for inactives: at the top dose activity change, negative = inhibition, actives largely listed as inhibitors. Vaccinia virus Venus reporter expression, fluorescence. actives 0.46% (n = 330,000); active means well fitted inhibition curve with a large enough effect; inconclusive means small, poorly fitted or top-dose-only effect; inactive means no such curve, though single readings can be large or run the other way; tested in A549 cells; further: nearly all actives have a fitted effect of over 30% in size; inactives centre near -10
Numbers without * were called inactive; i = inactive; ? = inconclusive; . = no result given; & = joins results of further samples; [ ] = dose if it differs, or a comment. On the % scale 0 is the no-effect control and ±100 the full control effect; potency means the concentration at half of the fitted maximal effect.

compound,Vaccinia mCherry,VACV Venus inh
O=c1c(-c2ccco2)[n+]([O-])c2ccccc2n1OCc1ccccn1,-16%,-8%
CC1=NN(S(=O)(=O)c2ccc(F)cc2)C(=O)c2ccccc2O1,-14%,-4%
C=CCn1c(-c2cccnc2Cl)nc2ccccc21,-14%,4%
COc1cccc(Nc2nc3c(S(=O)(=O)c4cc(C)ccc4C)nnn3c3ccsc23)c1,?,?
Cc1cccc(NC(=O)Cn2nc([N+](=O)[O-])c(Br)c2C)n1,-17%,5%
NNC(=O)/C(=C\c1cccs1)NC(=O)c1ccccc1,-19%,-11%
CCOC(=O)CSc1nnc(NC(=O)c2cc([N+](=O)[O-])cc([N+](=O)[O-])c2)s1,-19%,-1%
Cc1nc(SCC(=O)N2CCOCC2)c2c(=O)n(C)c(=O)n(CC(C)C)c2n1,-20%,-10%
Cc1cc(F)ccc1NCC(=O)Nc1ccccc1Br,-18%,-10%
CC(Nc1ccc([N+](=O)[O-])cc1[N+](=O)[O-])c1ccccc1 (stereo not drawn),-2%,11%
COc1ccccc1CCNC(=O)C(=O)NCC(c1cccs1)S(=O)(=O)c1ccc(C)cc1 (stereo not drawn),-29%,-25%
COC(=O)C1=C(C)N(CCCC(=O)O)C(=O)NC1c1ccc2c(c1)OCO2 (stereo not drawn),i,-15%

Later entries
compound,Vaccinia mCherry,VACV Venus inh
COc1ccccc1CNC(=O)CN1CCN(c2ccc(C(C)=O)cc2)CC1,-1%,-12%
CCOc1ccc(NC(=O)CN2CCN(S(=O)(=O)c3ccc(OC)cc3)CC2)cc1,-5%,0%
COc1ccc(C2(CO)OC(CO)C(O)C2O)cc1 (stereo not drawn),i,-6%
CCOC(=O)c1scc(-c2ccccc2)c1S(=O)(=O)Nc1cc(Cl)c(OC)cc1OC,-14%,-2%
O=C(NCCOC(=O)c1cccs1)c1cccnc1,.,1%
CCN(Cc1ccccc1)C(=O)Cn1c(=O)n(-c2ccc(C)c(C)c2)c(=O)c2c(C)c(C)sc21,-25%,-23%
Cn1c(/C=C/c2cccc(Br)c2)nc2ccccc2c1=O,-27%,?
CC(C)NC(=O)c1onc(CSc2ccc(F)c(F)c2)c1C(=O)NC(C)C,-14%,-16%
CCCNC(=O)COC(=O)c1c2c(nc3ccccc13)CCC2,5%,9%
CCCCNC(=O)CN1C(=O)NC(Cc2ccccc2)(Cc2ccccc2)C1=O,-10%,-10%
CCOc1ccccc1C=C1CCc2ccccc2C1=O,-24%,-28%
CCc1cccc(-n2c(=O)c3cccnc3n2CC(=O)Nc2ccc(F)c(C)c2)c1,-10%[7.34 µM],-10%[7.34 µM]

Later entries
compound,Vaccinia mCherry,VACV Venus inh
NC(=S)N=Nc1c(O)[nH]c2c(Cl)cc(Cl)cc12,?,?
CC(NC(=O)CNC(=O)C(Cc1ccccc1)NC(=O)OCc1ccccc1)C(N)=O (stereo not drawn),i,-7%
Cc1ccc(C)c(OCC(=O)Nc2ccc(S(=O)(=O)Nc3ncccn3)cc2)c1,-18%,-2%
Cc1cc(C(=O)N2CC=C(c3ccccc3)CC2)c2ccccc2n1,?,?
CC(=O)Nc1ccc(S(=O)(=O)NCCC(=O)Nc2ncccc2C)cc1,i,-13%
CCN(CC(=O)Nc1cc(Cl)ccc1C)C(=O)C1CCN(c2ncnc3sc(C)c(C)c23)CC1,11µM*,?
CCN(CC)c1ccc(NC(=O)c2ccc3c(c2)OCO3)c(C)c1,?,-13%
CC1CCC(N2CC(=O)N(CCC3=CCCCC3)C(c3ccc(F)cc3)C2=O)CC1 (stereo not drawn),-11%,-15%
COC(=O)C1=C(C)NC(=O)CC1c1ccccc1OC (stereo not drawn),-12%,-8%
O=C(COC(=O)CSc1ccccc1)NCCNC(=O)COC(=O)CSc1ccccc1,i,-11%
O=C(CO)C(O)C(O)C(O)CO (stereo not drawn),i,-10%
Cc1ccccc1-n1nc2c(c1NC(=O)c1c(-c3ccccc3Cl)noc1C)CS(=O)(=O)C2,-13%,1%

Reprinted at random: 6 entries already listed
compound,Vaccinia mCherry,VACV Venus inh
CC(NC(=O)CNC(=O)C(Cc1ccccc1)NC(=O)OCc1ccccc1)C(N)=O (stereo not drawn),i,-7%
Cc1cc(C(=O)N2CC=C(c3ccccc3)CC2)c2ccccc2n1,?,?
O=C(CO)C(O)C(O)C(O)CO (stereo not drawn),i,-10%
O=C(NCCOC(=O)c1cccs1)c1cccnc1,.,1%
NNC(=O)/C(=C\c1cccs1)NC(=O)c1ccccc1,-19%,-11%
CC(=O)Nc1ccc(S(=O)(=O)NCCC(=O)Nc2ncccc2C)cc1,i,-13%

New compounds follow:
compound,Vaccinia mCherry,VACV Venus inh
CCOc1ccccc1C(=O)Nc1nnc(SCC(=O)N2CCCC2)s1,i,-20%
COc1ccccc1C(=O)Nc1nnc(-c2ccc3c(c2)CCCC3)o1,-4%,-3%
N#C/C(=C/c1cc[nH]c1)C(N)=S,-10%,-10%
CCn1c(SCC(=O)N/N=C/c2ccc(O)c(OC)c2)nc2ccccc21,-13%,6%
O=C(CN(C(=O)c1csnn1)c1ccc(F)cc1)NCCc1ccccc1,-21%,-6%
COCCCNCCC(CCC(C)C)c1ccc2c(c1)OCO2 (stereo not drawn),-22%,-26%
C[N+]1(C)CCc2cc3c(cc2[C@H]1[C@@H]1OC(=O)c2c1ccc1c2OCO1)OCO3,i,-11%&-4%
COc1cccc(NC(=O)Cn2c(CCC(=O)O)ccc2-c2ccc(C)cc2)c1,-4%,-8%
COc1ccc(-n2nc(C(=O)NCCCOC(C)C)c3c4ccccc4n(C)c3c2=O)cc1,-22%,-14%
O=C(CNCc1ccccn1)Nc1cc(C(F)(F)F)ccc1N1CCOCC1,i,-8%
COc1ccc(/C=C2/CCC(CN3CCOCC3)C2=O)cc1 (stereo not drawn),i,5%
N#C/C(=C/c1ccccc1[N+](=O)[O-])C(=O)NCc1ccco1,-15%,0%

(more compounds)
compound,Vaccinia mCherry,VACV Venus inh
CCCn1c(N2CCN(CC(=O)c3c(C)n(C)c4ccc(OC)cc34)CC2)nc2c1c(=O)[nH]c(=O)n2C,-29%,?
COc1ccc(NC(=O)Nc2cc(C)ccc2F)cc1OC,i,-9%
CCOC(=O)[C@]12CCC=C1N(Cc1ccco1)C(=O)[C@H](CC(=O)NCc1ccccc1)C2,28%,-4%
COc1cc(/C=C2\SC(=S)N(CCC(=O)Nc3ccc(O)cc3)C2=O)cc(OC)c1OC,-22%,-28%
Cc1ccc(SCC(=O)Nc2ccc(O)c(-c3nc4cc(C)ccc4o3)c2)cc1,?,?
CCN1C(=O)[C@H]2[C@H]3CN=C(SCc4ccccc4)N3[C@@](CC)(C(=O)OC)[C@H]2C1=O,-15%,-3%
O=C(CSc1nnc(-c2ccc(Cl)s2)o1)N1CCCc2ccccc21,-16%,-11%
COc1ccc(C2C(C(C)=O)=C(O)C(=O)N2CCc2c[nH]c3ccccc23)cc1 (stereo not drawn),i,-4%
CCOC(=O)c1ccc(CN(Cc2ccc(F)cc2)S(=O)(=O)c2cc(C(=O)Nc3cccc(C(F)(F)F)c3)ccc2F)cc1,-15%,-21%
CCn1cc(CN(C)C(=O)/C=C/c2ccc([N+](=O)[O-])cc2)c(C)n1,-3%,-29%
O=C(c1ccccc1)c1c(O)cc(-c2ccccc2)oc1=O,-12%,-8%
CCOc1cc(NC(=O)c2cccs2)c(OCC)cc1NC(=O)c1cccnc1,?,-12%

Carrying on:
| mol | Vaccinia mCherry | VACV Venus inh |
| --- | --- | --- |
| O=C(N/N=C/c1cc(Br)cs1)c1ccccc1[N+](=O)[O-] | -3% | 2% |
| Cc1cccc(C)c1NC(=O)CNC(=O)c1c(C)nn(-c2ccccc2)c1Cl | -12% | -1% |
| O=c1[nH]cccc1-c1nc2ccccc2[nH]1 | -11% | -8% |
| CC(C)Nc1nc2c(S(=O)(=O)c3cccc(Cl)c3)nnn2c2ccsc12 | -3% | -20% |
| CCOc1cc(N2CCOCC2)c(OCC)cc1NC(=O)c1cc(S(=O)(=O)N2CCOCC2)ccc1C | -1% | -4% |
| Cc1ccnc(NS(=O)(=O)c2ccc(NS(C)(=O)=O)cc2)n1 | -15% | -1% |
| NC(=O)/C(=C/c1ccc2c(c1)OCO2)NC(=O)c1ccco1 | -6% | -6% |
| O=S(=O)(NC1CC1)c1ccc2c3c(cccc13)CC2 | -5% | -7% |
| O=C(Nc1ccccc1C(=O)O)c1cccc(N2C(=O)c3ccccc3C2=O)c1 | 0% | 0% |
| Cc1cccc2sc(NNC(=O)c3ccc4c(c3)OCCO4)nc12 | ? | -15% |
| O=C(Nc1cccc(F)c1)C1CCN(c2nc3ccccc3[nH]2)CC1 | i | -2% |
| CCCC(C(=O)NC1CCCC1)N(Cc1ccc(F)cc1)C(=O)c1snc(C(N)=O)c1N (stereo not drawn) | i | 3% |
| COc1cc(-c2noc(C)c2C(=O)NCCCn2ccnc2)cc(OC)c1OC | i | -17% |
| Cc1ccc(NS(=O)(=O)c2ccc(C)c(C(=O)N3CCOCC3)c2)cc1 | -18% | -16% |
| COc1ccc2nc(SCC(=O)Nc3c(C)cccc3C)[nH]c2c1 | -12% | -12% |

An excerpt of these results, with each value named:
O=S(=O)(NC1CC1)c1ccc2c3c(cccc13)CC2
  Vaccinia mCherry: -5%
  VACV Venus inh: -7%
O=C(Nc1ccccc1C(=O)O)c1cccc(N2C(=O)c3ccccc3C2=O)c1
  Vaccinia mCherry: 0%
  VACV Venus inh: 0%

Additional records.
| mol | Vaccinia mCherry | VACV Venus inh |
| --- | --- | --- |
| COc1cccc(CNC(=O)c2cnc(-c3ccccn3)nc2C(F)(F)F)c1 | -3% | -1% |
| NS(=O)(=O)c1ccc(NC(=O)C2CCCO2)cc1 (stereo not drawn) | -10% | -10% |
| O=C(CCCCn1c(=O)[nH]c2ccccc2c1=O)NC1CCN(Cc2ccccc2)CC1 | -9% | -13% |
| c1ccc(NCn2cncn2)nc1 | . | -4% |
| COc1ccc(Cn2ccc3nc(C)c(C(=O)N4CCN(c5cc(C)ccc5C)CC4)cc3c2=O)cc1 | ? | -27% |
| O=c1c2c(n3cnnc3n1-c1ccccc1)-c1ccccc1CC21CCCC1 | -13% | -9% |
| Cc1ccc(CN2C(=O)C(CC(C)C)Nc3ncnc(N4CCCCC4)c32)cc1 (stereo not drawn) | 1% | -21% |
| Cn1c(=O)c2c(-c3ccc(Cl)cc3)ccnc2n(C)c1=O | -9% | 2% |
| CN(C)c1ccc(C2C3C(=O)N(c4ccc(C(=O)O)cc4)C(=O)C3ON2c2ccccc2)cc1 (stereo not drawn) | ? | -4% |
| CN(C(=O)c1cccc(NC(=O)Cc2cccc(NC(=O)C3CCN(C(=O)C4CC4)CC3)c2)c1)C1CCC1 | -25% | 5% |
| Fc1ccc(N2CCN(Cc3nnc(-c4ccccc4Cl)o3)CC2)cc1 | -11% | -9% |
| c1ccc2c(c1)CCCN2Cc1nnc2n1CCCCC2 | -2% | 9% |
| COc1ccc(OCCOC(=O)c2cc(S(=O)(=O)N3CCOCC3)c(Cl)cc2Cl)cc1 | -1% | -14% |
| CCc1cc(=O)oc2cc(C)c(CN3CCCCC3)c(O)c12 | -23% | -14% |
| CCC(=O)Nc1ccc2c(c1)C(=O)N(C1CCCCC1)C2=O | i | -6% |

More results:
| mol | Vaccinia mCherry | VACV Venus inh |
| --- | --- | --- |
| CC(C)OC(=O)C1C(=O)CC(C)(O)C(C(=O)OC(C)C)C1c1ccccc1 (stereo not drawn) | -6% | -17% |
| CCCCC(=O)NS(=O)(=O)c1ccc(N=NN(CC)CC)cc1 | -6% | 9% |
| CCOc1ccc2nc(SCC(=O)NC3CCS(=O)(=O)C3)[nH]c2c1 (stereo not drawn) | -16% | -12% |
| COc1ccc(-c2ccc([C@H]3[C@H]4C=CC[C@@H](C)[C@@H]4C(=O)N3Cc3ccccc3)c(F)c2)cc1C | i | -9% |
| CC(C)Cc1nn2c(=O)cc(COC(=O)c3ccccc3NC(=O)c3cccs3)nc2s1 | -1% | -27% |
| COc1ccc(CN(C)C(=O)c2ccccc2Sc2ccccc2C#N)c(OC)c1 | -10% | -11% |
| COc1ccc(-c2[nH]c3ccccc3c2SCCNC(=O)c2cc(OC)c(OC)c(OC)c2)cc1 | -2% | -14% |
| CCOC1=C2[C@@H](CN(S(=O)(=O)c3ccccc3C)[C@H]2c2ccc(Cl)cc2)[C@H]2C(=O)N(C3CCCCC3)C(=O)[C@H]2C1 | i | -1% |
| CC(C)c1ccccc1NC(=O)CSc1nnc(COc2ccccc2Cl)o1 | -20% | -19% |
| COc1ccc(-n2nc(C(=O)NCC(=O)NCc3ccccc3OC)c3ccccc3c2=O)cc1 | -28% | -6% |
| COc1ccc(N2C(=O)C3C4C=CC(c5ccccc5)(C3C2=O)C2C(=O)N(c3ccc(OC)cc3)C(=O)C42)cc1 (stereo not drawn) | -4% | -6% |
| Nc1ccnc(Oc2ccc(F)cc2)c1 | ? | -23% |
| CCC(C)Sc1cccc(-c2nc3ccc(C)cn3c2NCc2ccccc2)c1 (stereo not drawn) | -26%&-1% | ? |
| Cc1cc(=O)[nH]c2nnc(SCC(=O)NC(C)(C)C)n12 | i | -11% |
| COc1ccc(C(=O)c2ccc(OC)cc2O)c(O)c1 | ? | -27% |
| O=C(Nc1ccc(Nc2ccccc2)cc1)C(Cl)Cl | ? | ? |
| CC(C)C(=O)Nc1cccc(C(=O)Nc2nnc(C(F)(F)F)s2)c1 | -15% | -13% |
| CCC(=O)Nc1nc2ccc(S(C)(=O)=O)cc2s1 | -8% | -28% |

Screens deposited in PubChem by National Center for Advancing Translational Sciences (NCATS).
